Assay outcomes from PubChem BioAssay.
Sa growth 42C: blocks Staphylococcus aureus growth. S. aureus RN4220 growth, OD600, 20 h, 42 °C; active compounds read low. relative growth, % (concentration not given with the values). actives 0.53% (n = 170,000);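 active = growth at 42 °C up to 50% and 20 or more points under that at 30 °C, or under 10% at both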;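 note: 300 nL library stock went into each well; scaled to the means of positive and negative controls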
GIV Gai3 FP: inhibitors of GIV GBA-motif binding to rat Galpha-i3 | P08753 | Galpha-i3/FITC-GIV peptide fluorescence polarization, 90 min; active compounds read low; scaled: aluminum fluoride 0%, vehicle 100% | percent of control (FP), % (test concentration not listed) | actives 0.42% (n = 210,000);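 active = replicate mean at 85% of control or lower, very high polarization wells dropped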;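 note: lower values mean more displacement of the GIV peptide from Galpha-i3; wells of about 15 µL received 100 nL stock; the first replicate is given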
Target sequence (P08753 whole entry, looked up): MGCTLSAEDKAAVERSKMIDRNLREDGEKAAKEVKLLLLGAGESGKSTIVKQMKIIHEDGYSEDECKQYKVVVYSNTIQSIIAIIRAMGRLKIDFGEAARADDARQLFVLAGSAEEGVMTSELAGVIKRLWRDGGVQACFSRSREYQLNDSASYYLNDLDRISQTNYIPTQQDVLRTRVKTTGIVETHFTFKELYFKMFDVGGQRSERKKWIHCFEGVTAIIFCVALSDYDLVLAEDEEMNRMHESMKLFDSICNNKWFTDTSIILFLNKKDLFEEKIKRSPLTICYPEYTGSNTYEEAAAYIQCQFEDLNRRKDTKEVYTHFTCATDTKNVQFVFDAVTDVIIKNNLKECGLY
HCMV NEC inh: inhibitors of HCMV UL50-UL53 nuclear egress complex interaction. HTRF UL50-UL53 interaction, normalized percent inhibition. inhibition, % (no concentration beside the values). actives 0.15% (n = 190,000);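 active = both replicates at 50% or more, plus weaker picks with an unusually low signal ratio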;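 note: stock transfer was 100 nL into about 20 µL; 0% = negative control wells and 100% = wells with untagged competitor protein; inactives centre near -12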
Sa growth 42C second temp: also measured in Sa growth 42C; calls as there; relative growth, %; measured here: growth at 30 °C;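 optical density after 20 h as mean of two plates; 100% = untreated growth and lower means inhibition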
Active calls of the source: *; x = not tested or not shown; & = joins results of further samples.

Preview:
SMILES	Sa growth 42C	Sa growth 42C second temp	GIV Gai3 FP	HCMV NEC inh
CCCC(=O)C1=C(c2ccc(C)c(C)c2)N(C(=O)CCC)n2c(CC)nnc2S1	103	89	101	x
Cc1ccc(NC(=O)CSc2nnc(-c3ccc(Br)cc3)o2)c(C)c1	112	93	104	x
O=C(OC1CCOC1=O)c1cccc(S(=O)(=O)N2CCCC2)c1 (stereo unspecified)	96	99	x	-10

The list itself, previewed entries included:
SMILES	Sa growth 42C	Sa growth 42C second temp	GIV Gai3 FP	HCMV NEC inh
CCCC(=O)C1=C(c2ccc(C)c(C)c2)N(C(=O)CCC)n2c(CC)nnc2S1	103	89	101	x
Cc1ccc(NC(=O)CSc2nnc(-c3ccc(Br)cc3)o2)c(C)c1	112	93	104	x
O=C(OC1CCOC1=O)c1cccc(S(=O)(=O)N2CCCC2)c1 (stereo unspecified)	96	99	x	-10
COCCCNC(=O)CN1CCN(c2ccc(C(=O)O)cc2NC(=O)c2ccccc2Cl)CC1	x	x	97	-26
N#CCCn1cc(/C=C/C(=O)NCc2ccccc2)c(-c2cc3ccccc3o2)n1	112	89	102	-45
CCOC(=O)c1c(CSc2ccccc2)n(C)c2cc(Br)c(OC(C)=O)cc12	x	x	94	-6
CSc1nc2c(c(=O)n1Cc1ccccc1)C(C)(C)Cc1ccccc1-2	108	93	x	-8
O=C(Nc1ccc2nc(N3CCC(N4CCCCC4)CC3)cc(C(=O)O)c2c1)c1ccccc1F	x	x	106	-56
CCOC(=O)C1CCN(C(=O)c2cc(-c3cccnc3)on2)CC1	x	x	99	0
COc1ccc(OCC(O)Cn2c(NCCO)nc3c2c(=O)n(C)c(=O)n3C)cc1 (stereo unspecified)	116	87	102	-44
OCc1cnn(-c2ccccc2)c1-n1cccc1	96	90	98	-29
COc1ccccc1OCCn1c(SCC(N)=O)nc2ccccc21	x	x	101	-33
COc1ccc(C(=O)N(CCCN(C)C)c2nc3ccc(F)cc3s2)cc1OC	x	x	105	-8
COc1cccc(C2CC(=O)Nc3c2c(C)nn3-c2nc(C)cc(C)n2)c1 (stereo unspecified)	x	x	108	26
CCC(Oc1ccccc1)C(=O)Nc1nnc(S(=O)(=O)N(CC)CC)s1 (stereo unspecified)	124	98	103	12
CCOC(=O)c1cnc2nc[nH]n2c1=O	101&105	87&90	97&100	-7&-22
CNC(=O)CSc1nc2ccccc2s1	95	88	x	-12
O=S1(=O)C[C@H](NCc2ccc(F)cc2)[C@@H](S(=O)(=O)c2ccc(F)cc2)C1	x	x	102	-21
CC1C(=O)N2CCCc3cc(NC(=O)c4ccccc4)cc1c32 (stereo unspecified)	100	88	95	-19
N#Cc1c(Cl)cccc1Oc1ccc(S(=O)(=O)N2CCOCC2)cc1	88	83	101	-18
COc1ccc2c(c1)C(=O)C(C1(O)C(=O)Nc3ccccc31)CC2 (stereo unspecified)	89	90	x	-13
Cc1ccc(C(C)N2CCN(S(=O)(=O)c3ccc4c(c3)OCCO4)CC2)cc1C (stereo unspecified)	83	108	98	4
O=C1CCC2(C(=O)OCCCn3c(=O)[nH]c4ccccc43)Sc3ccccc3N12 (stereo unspecified)	85	74	x	-28
COC(=O)C1=CN(C2CC2)c2cc(F)c(F)cc2S1(=O)=O	x	x	98	-16

Only GIV Gai3 FP and Sa growth 42C (3 entries from above):
compound,GIV Gai3 FP,Sa growth 42C
N#Cc1c(Cl)cccc1Oc1ccc(S(=O)(=O)N2CCOCC2)cc1,101,88
COc1ccc2c(c1)C(=O)C(C1(O)C(=O)Nc3ccccc31)CC2 (stereo unspecified),x,89
Cc1ccc(C(C)N2CCN(S(=O)(=O)c3ccc4c(c3)OCCO4)CC2)cc1C (stereo unspecified),98,83

Going on with the list.
SMILES	Sa growth 42C	Sa growth 42C second temp	GIV Gai3 FP	HCMV NEC inh
Brc1ccc(OCCSc2ncccn2)cc1	89	90	x	-19
Cn1cc(C(=O)c2cccc(Cl)c2)cc1/C=N\O	x	x	100	-16
Cc1cccc(-c2noc(-c3ccc[nH]c3=O)n2)c1	x	x	101	-73
Cc1ccc(NC(=O)Cn2cc(C(=O)C3CC3)c3ccccc32)cc1	103	96	93	7
O=C(NCc1ccc(F)cc1)c1ccc2nc(N3CCCCC3)sc2c1	107	91	102	-8
COc1ccc(C(Nc2nc(C)cc(C)n2)c2cc(C)sc2NC(=O)c2ccccc2)cc1 (stereo unspecified)	x	x	110	-14
CCOC(=O)c1nc(Cl)c2c(C)c(C)n(-c3cccc(Cl)c3)c2n1	x	x	96	-36
Cc1nc2c(-c3ccccc3)c(C)nn2c(C)c1CC(=O)N1CCC(C)CC1	x	x	102	-28
COc1ccc(OC)c(NC(=O)C2=Cc3cc(C)ccc3OC=C2)c1	x	x	103	-33
O=C(Nc1nc2ccsc2c(=O)s1)C1CCC1	114	81	103	-8
CC(C)n1nc(C(=O)N2CCC(=O)CC2)c2ccccc2c1=O	103	97	x	-12
O=C(Oc1ccc(Cl)cc1Cl)c1ccc(Br)cc1	76	86	99	x
Cc1ccc2nc(C(F)(F)F)cc(N3CCN(CCS(=O)(=O)c4ccccc4)CC3)c2c1	99	93	101	-6
Cc1cc(C)nc(N2CCCC(C(N)=O)C2)n1 (stereo unspecified)	91	83	102	-18
CCOC(=O)c1c(C)[nH]c(CCC(=O)NCc2ccc(CC)cc2)c1C	92	86	105	x
Cc1nc2c(=O)oc3ccccc3c2n1-c1ccccc1	109	91	103	x
CCCN1CCN(CCNC(=O)Nc2ccccc2OC)CC1	99	89	101	x
CCS(=O)(=O)Nc1ccc(C(=O)NC(C)C)cc1	96	97	102	-28
CC1CCCCN1C(=O)N1CCOCC1 (stereo unspecified)	103	91	97	x
CCS(=O)(=O)N1CCC2(CC1)N=C(c1ccc(C(C)(C)C)cc1)C(=O)N2	97	103	109	2
Cc1ccc(N(Cc2ccccc2)C(=O)c2cccnc2)cc1	121	103	x	-4
CCOc1ccc(C(=O)c2cn(Cc3ccccc3OC)c3ccc(F)cc3c2=O)cc1	108	86	97	-31
O=C(c1ccc2c(c1)CCN2S(=O)(=O)c1ccccc1)N1CCN(c2cccc(Cl)c2)CC1	93	86	102	-25
CCCCCCn1nc(C(=O)OCC(=O)c2ccc[nH]2)c2ccccc2c1=O	108	89	x	-41
CC1CN(C(=O)C(C)Oc2ccccc2)CC(C)O1 (stereo unspecified)	111	94	98	-2
CCC(Sc1ncccc1C(=O)Oc1ccccc1Cl)C(=O)Nc1ccccc1OC (stereo unspecified)	117	84	100	x
COc1ccc(N(C(N)=S)C2=NCCCCC2)cc1	113	83	x	-36
Cc1ccccc1CNC(=O)CN1C(=O)CCCc2ccccc21	81	86	103	x
Cc1ccc(C)c(N2CCN(C(=O)Cn3ncc4ccsc4c3=O)CC2)c1	94	95	95	4
Clc1ccc(-c2noc(CCc3nc4ccccc4[nH]3)n2)cc1	x	x	101	3
Cc1ccc(CNC(=O)c2nnc(-c3oc4ccc(C)cc4c3C)o2)cc1	x	x	103	-18
O=S(=O)(Nc1ccccc1)C(F)(F)F	70	68	x	-27
Cc1ccc2nc(N(Cc3cccnc3)C(=O)COc3ccccc3)sc2c1	154	87	104	x
O=C(CSc1ccc(S(=O)(=O)N2CCOCC2)cc1)NC1CCCCC1	106	103	102	-39
Cc1ccc(NC(=O)CCCn2nnc3ccccc3c2=O)nc1	99	99	101	-16
Clc1ccccc1CSc1nncn2c1cc1occc12	104	99	103	x
COc1ccc(Br)cc1S(=O)(=O)NCCCN1CCOCC1	93	95	x	6
Cc1cc(C)cc(N=C2NC(=O)/C(=C/c3ccccc3[N+](=O)[O-])S2)c1	x	x	102	-18
O=C(O)CCc1ccc(-c2ccc(Br)cc2)n1-c1ccccc1O	102	39	112	2
N#CCCn1cc(/C=C2\NC(=S)N(c3ccccc3)C2=O)c(-c2ccccc2)n1	73	99	x	-39
CCCNC(=O)c1c(O)c2c([nH]c1=O)CCCC2	93	91	x	0
CCCCC(=O)Nc1cc(-c2nc3ccccc3o2)ccc1OC	93	75	108	-55
CCCCCn1c(=O)c2sccc2n2c(CCC(=O)NC3CCCCC3)nnc12	x	x	99	-16
CCC(C(=O)NCCc1ccccc1)n1nc(C)n2c(cc3sccc32)c1=O (stereo unspecified)	127	82	102	-48
CN(C)/C=C1/C(=O)N(c2ccc(Cl)cc2)C(=O)c2ccccc21	105	76	x	-26
CC(OC(=O)c1c(F)cccc1F)C(=O)Nc1cc(Cl)cc(Cl)c1 (stereo unspecified)	113	70	x	-14
CCc1cccc2c(-c3ccccc3)nc(SCC(=O)Nc3ccccc3)nc12	117	92	95	-24
COc1ccc(C(OC(=O)c2ccccc2)c2nccc3ccccc23)cc1 (stereo unspecified)	113	96	101	x
CSc1nc(N)nc2sc(C(=O)C34CC5CC(CC(C5)C3)C4)c(N)c12	118	95	104	x
CCOC(=O)Cn1nc(C)c2nn(-c3ccccc3)c(-n3cccc3)c2c1=O	x	x	105	-10
C1CN=C(Nc2nn[nH]n2)C1	94	87	x	-36
COc1ccc(CNC(=O)c2ccc3c(c2)CCN3S(=O)(=O)c2ccccc2)cc1	98	92	103	-16
CNC(=O)c1ccc(Cn2c(=O)c3cc(OC)c(OC)cc3n(C)c2=O)cc1	x	x	110	-16
COc1ccc(S(=O)(=O)CCC(=O)Nc2cc(C)ccc2OC)cc1	117	96	104	-10
CN(C(=O)c1ccc2c(c1)N(Cc1ccc(F)cc1)C(=O)c1ccccc1S2(=O)=O)C1CCCCC1	102	92	100	-17
C/C=C/C=N/Nc1nc2ccccc2s1	70	74	x	-55
CN(C)c1nc(C(N)=O)nc(N(C)C)n1	102	82	105	0
CSc1nc(C)nc(-c2ccccc2)c1C#N	95	82	98	-12
O=C(CNS(=O)(=O)c1ccc(Br)s1)N1CCN(c2ccc(F)cc2)CC1	110	81	107	-2
COc1ccccc1-c1nnc(SCc2cccc(S(=O)(=O)N(C)C)c2)n1N	101	90	x	-16
Further entries:
SMILES	Sa growth 42C	Sa growth 42C second temp	GIV Gai3 FP	HCMV NEC inh
COc1ccc(-c2cc(C(F)(F)F)nc(SCC(=O)NCc3ccc(Cl)cc3)n2)cc1	93	92	102	-6
COc1cc(OC)c(NC(=O)c2ccc3nncn3c2)cc1Cl	x	x	105	-8
C=CCOc1ccc(C(=O)NCC2COc3ccccc3O2)cc1 (stereo unspecified)	x	x	97	-11
COc1ccc(-c2ccc(/C=C3\C(=O)N(c4ccc(S(N)(=O)=O)cc4)N=C3C)o2)c([N+](=O)[O-])c1	x	x	97	-31
Cc1ccc(OCCCn2cc(/C=C3/C(=O)NC(=O)N(C4CCCCC4)C3=O)c3ccccc32)cc1	102	81	x	-15
O=C(N1CCCCCC1)C12CC3CC(CC(Cl)(C3)C1)C2	95	84	x	-41
O=C(c1cc(-c2ccccc2)no1)N1CCCC1c1cccc(F)c1 (stereo unspecified)	x	x	108	13
Cc1ccccc1-n1c(N)cc(=O)[nH]c1=S	107	104	104	7
COc1ccccc1CNC(=O)C(CC(C)C)NS(=O)(=O)c1ccc2c(c1)oc(=O)n2C (stereo unspecified)	85	99	103	15
Cc1ccc(CC(=O)N2CCC3(CC2)Nc2ccc(C)c(C)c2-n2cccc23)cc1	x	x	104	-16
O=C(CCc1ccco1)N(Cc1cccs1)c1ccc2c(c1)OCCO2	81	76	x	-13
COc1ccc(OC)c(-c2csc(-c3nnn(-c4ccc(Cl)cc4)c3N)n2)c1	x	x	113	13
O=C(Cn1c(=O)n(-c2ccc(CC(=O)NC3CC3)cc2)c(=O)c2ccccc21)Nc1ccccc1	x	x	102	5
CN(Cc1ccccc1)C(=O)c1cc2nc(-c3ccco3)cc(C(F)(F)F)n2n1	86	72	99	-24
COc1cc(OC)cc(-c2cc3nc(C)c(CCC(=O)Nc4ccc(F)c(Cl)c4)c(C)n3n2)c1	104	87	107	-10
CC(=O)N(Cc1cc2cc(C)ccc2[nH]c1=O)C1CCCC1	110	104	103	-9
CC(C)NS(=O)(=O)c1ccc(NC(=O)CSC(C)(C)C)cc1	88	88	x	-28
Nc1nc(CNS(=O)(=O)c2cccc3nsnc23)nn1S(=O)(=O)c1cccc2nsnc12	101	81	104	-102
N#Cc1cccc(NC(=O)CSc2ccccc2Cl)c1	72	86	x	18
COC(=O)c1sccc1OCc1ncc(C(F)(F)F)cc1Cl	98	103	99	-2
O=C(CN1C(=O)C2(SCC(=O)N2c2ccccc2)c2ccccc21)NCc1ccccc1 (stereo unspecified)	100	93	102	x
O=C(O)c1nn(-c2ccccc2)c2c1CCc1occc1-2	173	68	98	x
COc1ccc(C2CC(c3cccs3)=NN2C(=O)CSc2nc3ccccc3s2)cc1 (stereo unspecified)	117	94	98	x
O=C(CNc1cc(C(F)(F)F)ccc1N1CCOCC1)N1CCc2ccccc2C1	88	102	x	25
Cc1ccc(-c2nnc(OCCN3CCOCC3)c3ccccc23)cc1	99	78	105	-4
CCN(CC)CCCNC(=O)CSc1c2c(nc3cc(Cl)ccc13)CCCC2	109	87	107	-44
Cn1ccnc1SCc1csc(-c2ccccc2)n1	102	86	x	-48

Among those listed so far, 4 have a COOH group:
SMILES	Sa growth 42C	Sa growth 42C second temp	GIV Gai3 FP	HCMV NEC inh
COCCCNC(=O)CN1CCN(c2ccc(C(=O)O)cc2NC(=O)c2ccccc2Cl)CC1	x	x	97	-26
O=C(Nc1ccc2nc(N3CCC(N4CCCCC4)CC3)cc(C(=O)O)c2c1)c1ccccc1F	x	x	106	-56
O=C(O)CCc1ccc(-c2ccc(Br)cc2)n1-c1ccccc1O	102	39	112	2
O=C(O)c1nn(-c2ccccc2)c2c1CCc1occc1-2	173	68	98	x
